StopGo reporter = lowers the luciferase signal of an FMDV 2A StopGo reporter; human cells with a luciferase reporter of 2A StopGo recoding; control for the full effect not named in the record; Potency, µM (series often up to 57.9 µM), inactives show at the highest dose signal change, negative = less light; 410,000 compounds, 1.2% hits; AID 1159524; active = well fitted falling curve with a large enough effect; inconclusive = small, poorly fitted or top-dose-only effect; inactive = no such curve, though single readings can be large or run the other way; tested in HEK293T cells; further: on the % scale 0 is the no-effect control and ±100 the full control effect; nearly all actives have a fitted effect of over 45% in size; luciferase light after 4 h
NS1 function inh = influenza NS1 inhibition; S. cerevisiae slowed by influenza A NS1, growth recovery by OD600; Potency, µM (titrated, usually from 46.1 µM), without a hit: top-dose activity, positive = more growth; 270,000 compounds, 0.4% hits; active means well fitted rising curve with a large enough effect; inconclusive means small, poorly fitted or top-dose-only effect; inactive means no such curve, though single readings can be large or run the other way; further: nearly all actives have a fitted effect of over 50% in size
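Compounds were scored for reversing the slow growth caused by influenza A NS1 in S. cerevisiae, measured by optical density at 600 nm. Assay medium contained 2% galactose at pH 6.0; NS1-free yeast of the same strain were the positive control.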
MARV entry inh = inhibitors of Marburg virus binding or cell entry; AID 540276; Marburg virus pseudotyped entry inhibition, cell reporter; control for the full effect not named in the record; about a third of the inactives were read at about 46 µM; 300,000 compounds, 1.8% hits; Potency, µM (doses to about 37.8 µM), without a hit: top-dose activity change, negative = inhibition, most hits filed as inhibitors; active = well fitted inhibition curve with a large enough effect; inconclusive = small, poorly fitted or top-dose-only effect, or effect the other way; inactive = flat fitted curve, though single readings scatter; tested in HEK293 cells; about a fifth of its hits are not listed in these tables; further: on the % scale 0 is the no-effect control and ±100 the full control effect; luciferase read-out
RE007 growth inh = less growth of the S. pombe RE007 Vpr strain; S. pombe RE007 Vpr strain, BacTiter-Glo ATP luminescence, 24 h; control for the full effect not named in the record; Potency, µM (highest dose often 92.2 µM), for inactives: top-dose activity change, negative = less growth; 360,000 compounds, 0.21% hits; AID 651644; active = well fitted falling curve with a large enough effect; inconclusive = small, poorly fitted or top-dose-only effect; inactive = no such curve, though single readings can be large or run the other way;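 further: on the % scale 0 is the no-effect control and ±100 the full control effect; nearly all actives have a fitted effect of over 50% in size; the assay follows cell death caused by Vpr and the record does not say whether a fall means rescue or toxicity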
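Fission yeast RE007 carrying one integrated HIV-1 vpr copy, seeded at OD 0.01 in PMG+AL medium with 23 nL pinned compound. Grown 24 h at 30 degrees; viability read by BacTiter-Glo luminescence after 5 min.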
Cruzain inh noDet = blocks cruzain activity in detergent-free assay | P25779 | purified cruzain, Z-FR-AMC fluorescence, no detergent | Potency, µM, for the others: max response, negative = inhibition, most hits filed as inhibitors | 200,000 compounds, 2.3% hits | AID 1476;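 further: plate controls were enzyme without inhibitor for no effect and buffer without enzyme for full effect; nearly all actives have a fitted effect of over 40% in size; top concentration of the series not given in the record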
Target sequence (P25779 123-467 limits assumed): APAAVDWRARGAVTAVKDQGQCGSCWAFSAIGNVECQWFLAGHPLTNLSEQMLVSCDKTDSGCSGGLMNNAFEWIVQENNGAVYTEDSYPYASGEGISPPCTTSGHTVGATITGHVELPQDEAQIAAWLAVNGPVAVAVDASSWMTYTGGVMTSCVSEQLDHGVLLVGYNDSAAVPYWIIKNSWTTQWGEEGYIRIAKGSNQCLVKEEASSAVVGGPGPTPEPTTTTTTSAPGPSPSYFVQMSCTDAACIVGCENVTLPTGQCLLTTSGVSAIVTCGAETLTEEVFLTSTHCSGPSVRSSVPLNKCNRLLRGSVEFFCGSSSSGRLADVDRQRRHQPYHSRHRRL
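Detergent-free condition (0.00005% Triton X-100) in acetate buffer pH 5.5 with DTT. 1.5 nM enzyme and compound were pre-mixed 15 min, then 2 uM Z-FR-AMC substrate added; reaction progress from fluorescence change between first and third reads (60 s).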
Cruzain Triton = cruzain (T. cruzi) inhibition with detergent; P25779; purified cruzain, Z-FR-AMC fluorescence, 0.01% Triton; Potency, µM, for inactives: max response, negative = inhibition, actives largely listed as inhibitors; 200,000 compounds, 0.43% hits;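 further: plate controls were neutral wells for no effect and buffer without enzyme for full effect; nearly all actives have a fitted effect of over 40% in size; top concentration of the series not given in the record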
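Purified cruzain (1.5 nM final) was preincubated with compounds for 15 min at room temperature in 100 mM sodium acetate pH 5.5, 5 mM DTT, 0.01% Triton X-100. Reaction started with 2 uM Z-FR-AMC; AMC fluorescence change over 60 s gave activity.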
SARS PLP yeast = inhibitors of SARS-CoV papain-like protease in yeast; S. cerevisiae expressing SARS-CoV PLpro, growth rescue; control for the full effect not named in the record; Potency, µM (top dose mostly 32.9 µM), inactives show top-dose activity, positive = growth rescue; 330,000 compounds, 0.19% hits; AID 485353; active means well fitted rising curve with a large enough effect; inconclusive means small, poorly fitted or top-dose-only effect; inactive means no such curve, though single readings can be large or run the other way; further: 0% is about no effect; nearly all actives have a fitted effect of over 55% in size; growth read by luminescence after 48 h
LASV entry inh = inhibitors of Lassa virus binding or cell entry; Lassa virus pseudotype entry inhibition, cell reporter; control for the full effect not named in the record; Potency, µM (titrated, usually from 37.9 µM), for inactives: at the top dose activity change, negative = inhibition, actives largely listed as inhibitors; 300,000 compounds, 1.2% hits; AID 540256; active means well fitted inhibition curve with a large enough effect; inconclusive means small, poorly fitted or top-dose-only effect, or effect the other way; inactive means flat fitted curve, though single readings scatter; tested in HEK293 cells; further: on the % scale 0 is the no-effect control and ±100 the full control effect; nearly all actives have a fitted effect of over 50% in size; luciferase read-out
Starred values were filed as active, the others as inactive; ? = inconclusive; nt = no result given; & = joins results of further samples; ! = repeats disagree; [ ] = another dose, or the depositor's remark. Unless noted, the call rests on the fitted dose curve; in most records, active means well fitted curve in the direction sought with a large enough effect; inconclusive means small, poorly fitted or top-dose-only effect, or another doubt; inactive means no such curve, though single readings can be large; an effect the other way counts as inactive or inconclusive. Potency means the concentration at half of the fitted maximal effect.

SMILES	StopGo reporter	NS1 function inh	MARV entry inh	RE007 growth inh	Cruzain inh noDet	Cruzain Triton	SARS PLP yeast	LASV entry inh
CC1(C)CC(=O)C(C=NC2CC(C)(C)NC(C)(C)C2)=C(O)C1	nt	-1%	?	-5%	6%	1.2%	22%	4%
Cc1cccc(N2CCN(S(=O)(=O)c3c(C)nc4scc(C)n4c3=O)CC2C)c1 (configuration not stated)	?	-4%	-52%&-8%[46.1 µM]	4%	?	-1.7%	3%	?
Cc1ccc(Cn2c(C(=O)O)c(CNCc3ccc(C)o3)c3ccc(C)cc32)cc1	-20%	nt	nt	nt	?	-8.6%	nt	15%[46.1 µM]
c1ccc(-c2cn3c(n2)CCC3)cc1	21%	20%	?	-12%	7%	3.5%	1%	-2%
O=C(Nc1ccncc1)c1cc(F)cc(F)c1	-3%	0%	-13%	-8%	-5%	-0.2%	-8%	2%
CCC(=O)Nc1sc2c(c1C#N)CCCCC2	31%[activator]	-8%	1%	-19%	-2%	-6.6%	-5%	-12%
Cc1ccc(-c2cc(Cc3ccc(F)cc3)c(=O)[nH]n2)cc1	-6%	-37%	nt	11%	nt	nt	-8%	nt
c1ccc(-n2ncc3c2ncn2nc(-c4ccco4)nc32)cc1	nt	-27%	-14%	-8%	?	3.6%	-5%	?
O=C(NCCSCc1c(F)cccc1Cl)Nc1ccccc1	-1%	-36%	?	-9%	nt	nt	-4%	?
COc1ccc(/C=C/C(=O)c2cc3cccc(OC)c3oc2=O)cc1	?	26%	?	11%	nt	nt	0%	?
Cc1ccc(CNC(=O)c2ccc(Cn3c(=O)c4ccccc4n(CC(=O)Nc4c(C)cc(C)cc4C)c3=O)cc2)cc1	-23%	nt	14%[46.1 µM]	nt	-24%	-1.1%	nt	-5%[46.1 µM]
Cc1ccc(C(C(=O)NC2CCCCC2)N2CCCC2)cc1 (configuration not stated)	6%	-4%	-16%	8%	-13%	7.5%	-4%	8%
CCN(CC)S(=O)(=O)c1cc(C(=O)OCC(=O)Nc2ccc(-c3nc4ccc(C)cc4s3)cc2)ccc1F	-17%	-23%	?	1%	-29%	-2.8%	6%	3.2µM*!
CCCCC(=O)N1C/C=C\C(c2ccc(OC)cc2)N(Cc2ccc(F)cc2)C(=O)[C@H]1Cc1ccccc1 (some centres not stated)	?	-32%	nt	2%	nt	nt	-7%	nt
CCn1c(SCC(=O)NC2CC2)nnc1-c1ccc(OC)cc1	0%	12%	5%	-1%	nt	nt	?	0%
CC1CCCCN1C(=O)CN(C)S(=O)(=O)c1cccc2nsnc12 (configuration not stated)	-11%	-9%	16%[46.1 µM]	-3%	nt	nt	-3%	4%[46.1 µM]
Nc1[nH]n(-c2ccccc2)c(=O)c1N=Nc1ccccc1	19%	-23%	?	?	nt	nt	-2%	2%
CC(C)OCCCN1CC(=O)N2C(c3cccc([N+](=O)[O-])c3)c3[nH]c4ccccc4c3C[C@H]2C1=O (some centres not stated)	-23%	13%	nt	-2%	nt	nt	1%	nt
CC(C)(C)C(=O)Nc1ccc(C(=O)N/N=C/c2ccccc2OC(=O)c2ccccc2)cc1	0%	-4%	?	-5%	-6%	-3.3%	-8%	?
CC(C)(C)NC(=O)CCCCCCCC(=O)NC(C)(C)C	-2%	6%	4%[46.1 µM]	9%	nt	nt	1%	?
Cc1ccnc(NC(=O)C2CCN(S(=O)(=O)c3cccc4nsnc34)CC2)c1	-23%	-2%	18%	3%	-10%	-3.5%	-3%	1%
O=C(NCC1CCCO1)c1ccc2c(c1)N(Cc1ccc(F)cc1Cl)C(=O)CS2 (configuration not stated)	-13%	-5%	nt	-4%	nt	nt	-3%	nt
O=C(O)CCC(=O)N(Cc1ccco1)c1nc(-c2ccccc2)cs1	-3%	-8%	-4%	7%	28%	-6.5%	-2%	4%
Cc1ccc(NC(=O)CNC(=O)COc2ccccc2)nc1	9%	nt	-18%	1%	nt	nt	nt	0%[46.1 µM]
CCN(CC(=O)Nc1cc(Cl)ccc1C)C(=O)CCS(=O)(=O)c1ccc(C)cc1	-25%	nt	?	21%	nt	nt	1%	-6%
CCCCCCCCOc1ccc(C2OC34CCCCC3C(C#N)(C#N)C2(C#N)C(=N)O4)cc1 (configuration not stated)	-20%	-12%	?	10%	1%	-17%	7%	-5%
Brc1ccc(-c2csc(N/N=C/c3ccc4c(c3)OCO4)n2)cc1	-29%	10%	?	0%	10µM*	-0.2%	25%	7%
O=C(O)C1CCCCC1C(=O)Nc1ccccc1F (configuration not stated)	24%	?	15%	6%	-7%	0.5%	3%	3%
Cc1ccc(NC(=O)[C@H](Cc2ccccc2)NC(=O)C2CCNCC2)cc1	-12%	-3%	nt	14%	nt	nt	0%	nt
Cc1cccc(NC(=S)NC(=O)C(c2ccccc2)c2ccccc2)n1	-16%	nt	?	12%	nt	nt	nt	?
CC(C)N(C(=O)Cn1cc(SCC(=O)NCC2CCCO2)c2ccccc21)C(C)C (configuration not stated)	-6%	nt	-22%	36%	nt	nt	2%	2%
COc1ccccc1OCCCCCCN1CCOCC1	-2%	-14%	nt	-8%	nt	nt	0%	nt
COc1cccc(/C=N/NC(N)=S)c1OS(=O)(=O)c1ccccc1	0%	7%	3%	-3%	5µM*	14µM*	16%	2%
C/C(CC(C)C)=N\Nc1ccc(S(N)(=O)=O)cc1[N+](=O)[O-]	-24%	nt	?	16%	nt	nt	-1%	-14%[46.1 µM]
CS(=O)(=O)Oc1ccc2c(c1)O/C(=C\c1cccnc1)C2=O	-7%	6%	6%[46.1 µM]	2%	nt	nt	-3%	5%
Cc1ccc(S(=O)(=O)Nc2cccc(/C=C/C(=O)O)c2)cc1	48%[activator]	8%	-6%	12%	-6%	-0.6%	-3%	0%
CC(=O)CSc1nnc(-c2ccncc2)n1C	-5%	1%	7%	-1%	-10%	-2.5%	?	1%
CCN(c1ccccc1)S(=O)(=O)c1cc(C(=O)Oc2ccc3c(C)cc(=O)oc3c2)ccc1C	-6%	1%	-2%	9%	-12%	-1.3%	-12%	0%
COc1ccc(NC(=O)c2cnc[nH]2)cc1	24%	nt	?	nt	1%	0.6%	nt	-5%[46.1 µM]
CN(C(=O)CN1C(=O)CCSc2ccc(S(=O)(=O)N3CCCC3)cc21)c1ccccc1	8%&2%	10%	nt	18%	?	-2.7%	-9%	13%[46.1 µM]
COc1ccc(CC(=O)Nc2nc(-c3ccc(F)c(F)c3)cs2)cc1OC	18µM*	-37%	10µM*	3%	nt	nt	-16%	11µM*
CCOC(=O)c1cnc2ccc(C(=O)OC)cc2c1Nc1cccc(C(=O)O)c1	27%	nt	-10%[46.1 µM]	6%	nt	nt	0%	6%
Cc1sc2ncn3ncnc3c2c1C	-7%	3%	1%	5%	11%	6.6%	-3%	-3%
CCN1C(=O)/C(=C2/C=CC=CN2C)OC1=S	-16%	-144%	-1%	-20%	-6%	-8.7%	11µM*	26%
O=C(NC1CC1)C1CCN(C2CCN(Cc3ccccc3C(F)(F)F)CC2)CC1	58%[activator]	0%	nt	-5%	nt	nt	2%	nt
COc1ccc(CN(C)CC2CCCN(CCc3ccc(Cl)cc3)C2)cc1OC (configuration not stated)	-15%	-14%	2.2µM*	-15%	nt	nt	-1%	?
O=C(c1ccc(S(=O)(=O)Nc2ccc(F)cc2)cc1)N1CCN(c2ccccn2)CC1	-15%	nt	?	-14%	nt	nt	4%	?
Cc1ccc(S(=O)(=O)N2CCN(S(=O)(=O)N3CCOCC3)CC2)cc1	3%	-2%	-18%	2%	12%	1.7%	1%	-9%
Cc1cs/c(=N/C(=S)Nc2ccccc2)n1C	-5%	-3%	?	-14%	-28%	-2.1%	-26%	?
CC(C)C(C(=O)NC1CCCC1)N(Cc1ccco1)C(=O)CNS(=O)(=O)c1ccccc1 (configuration not stated)	18%	8%	9%	-9%	nt	nt	4%	4%
CCn1c(SCC(=O)NC2CCCC2)nnc1-c1ccncc1	0%	-3%	?	17%	nt	nt	0%	-6%[46.1 µM]
Cc1ccc(CC(CC(=O)O)C(=O)NC2CCCCC2)cc1 (configuration not stated)	0%	4%	-6%	0%[3.69 µM]	0%	9.3%	2%	-18%
CSc1ccc(CC2C(=O)Nc3ccccc32)cc1 (configuration not stated)	26%	nt	1%[46.1 µM]	nt	-11%	-6.6%	nt	?
COc1ccc(OC)c(CCNC(=O)c2csc3c2CCCCC3)c1	33%[activator]	nt	?	nt	-4%	-4.4%	nt	nt
CCC(CC)C(=O)Nc1nnc(SCC(=O)NC2CC2)s1	-2%	4%	0%[46.1 µM]	-13%	nt	nt	-3%	?
O=C(NCc1ccco1)C1CC(=O)N(c2ccc(F)cc2)C1 (configuration not stated)	3%	1%	?	11%	-13%	2.4%	-1%	-3%
O=C(NCc1ccc2c(c1)CCN2C(=O)c1ccccc1)Nc1cccc(C(F)(F)F)c1	?	nt	nt	nt	3%	-5.4%	nt	-1%[46.1 µM]
CCOC(=O)c1cc2c(nc1NC(=S)NCc1ccccc1)CCCC2	37%[activator]	8%	?	12%	-4%	-0.4%	-3%	6%[46.1 µM]
COc1ccc2[nH]c3c(c2c1)CCn1c-3nc2sc(C(=O)Nc3ccccc3)c(C)c2c1=O	nt	12%	1%	nt	-8%	-4.6%	2%	0%
CC1Cc2ccccc2N1C(=O)CSc1nnc(-c2ccccc2Cl)o1 (configuration not stated)	-13%	nt	6%[46.1 µM]	nt	-3%	-3.2%	nt	-6%[46.1 µM]

The list goes on:
SMILES	StopGo reporter	NS1 function inh	MARV entry inh	RE007 growth inh	Cruzain inh noDet	Cruzain Triton	SARS PLP yeast	LASV entry inh
C/C(=C\CCC1(C)C2CC3C(C2)C31C)C(=O)O (configuration not stated)	-16%	-58%	nt	8%	nt	nt	-1%	nt
Cc1ccc(C(=O)NC(=S)NNC(=O)CC#N)cc1	15%	7%	1%[46.1 µM]	28%	nt	nt	0%	6%
COc1cccc(/C=C2\SC(=S)N(N3CCOCC3)C2=O)c1OC	-8%	-6%	-2%	34%	?	-6.9%	-15%	-8%
CCC(C)c1ccc(NC(=S)NCc2cccs2)cc1 (configuration not stated)	74%[activator]	-54%	-2%	-30%	-5%	-3.7%	-7%	-10%

Screens (PubChem BioAssay)
